VDR inhibitor – Inhibitors of the vitamin D receptor (VDR): qHTS; VDR-SRC2-3 peptide fluorescence polarization, 2 h; AID 504847, 2011; Vitamin D3 receptor (Homo sapiens), P11473; Potency, µM, for the others: max response, negative = inhibition, hits mostly inhibitors; 400,000 tested, 0.93% active; active means well fitted inhibition curve with a large enough effect; inconclusive means small, poorly fitted or top-dose-only effect, or another doubt; inactive means no such curve, though single readings can be large or run the other way; further: series mostly up to about 120 µM
Target sequence (P11473 whole entry, looked up): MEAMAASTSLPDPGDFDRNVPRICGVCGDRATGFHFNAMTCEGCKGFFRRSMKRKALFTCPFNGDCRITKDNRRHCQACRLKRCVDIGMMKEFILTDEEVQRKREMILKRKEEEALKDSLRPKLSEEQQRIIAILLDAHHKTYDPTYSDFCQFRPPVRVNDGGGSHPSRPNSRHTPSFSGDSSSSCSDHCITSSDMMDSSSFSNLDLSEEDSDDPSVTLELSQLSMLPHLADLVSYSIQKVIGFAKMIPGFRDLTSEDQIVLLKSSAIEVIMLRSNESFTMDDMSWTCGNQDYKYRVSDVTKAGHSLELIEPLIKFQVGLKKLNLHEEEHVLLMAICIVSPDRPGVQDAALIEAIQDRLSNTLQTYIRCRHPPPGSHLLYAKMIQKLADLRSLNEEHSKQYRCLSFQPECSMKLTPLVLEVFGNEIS
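Inhibition of the VDR/SRC2-3 peptide interaction is quantified by fluorescence polarization. Compounds (23 nl, pintool) incubate with the reagents for 2 hours at ambient room temperature.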
* hit, by the source's call; ? = inconclusive; & = joins results of further samples; ! = a repeat was not active. On the % scale 0 is the no-effect control and ±100 the full control effect; potency means the concentration at half of the fitted maximal effect.

SMILES | VDR inhibitor
CCCCC/C=C\C/C=C\C/C=C\C/C=C\CCCC(=O)NCCc1ccc(O)c(O)c1 | 40µM*!
CCc1nc(N2CCNCC2)c(C#N)c2c1CSC(C)(C)C2 | -7%
C=CCn1c(O)c(C=Nc2ccc(F)cc2)c(=O)[nH]c1=O | -15%
CCN(CC)CCNCc1nc2ccccc2c(=O)n1-c1ccc(F)cc1 | 12%
O=c1[nH]cc(COCC(F)(F)C(F)(F)C(F)(F)F)c(=O)[nH]1 | 9%
COc1ccc(CNCCc2c(C)[nH]c3ccc(OC(F)(F)F)cc23)c(OC)c1 | -2%
NCCc1ccccc1 | -5%&7%
CC(=O)OC1(Cc2ccccc2)CN2CCC1c1ccccc12 (stereo not given) | -9%
CCN(CC)P(=O)(/C=C(\Cl)c1ccccc1)/C=C(\Cl)c1ccccc1 | -5%
N=C1C(c2ccccc2)=C(O)CN1Cc1ccco1 | 7%
Fc1ccc2c(c1)nnn2C1CCN(Cc2ccccc2)CC1 | -4%
CCOP(=S)(OCC)C(O)CCCCCn1c(=O)c(F)cn(C2CCCO2)c1=O (stereo not given) | -27%
CC(C)OCC(O)CN1CC2C[C@@H](C1)Cn1c2cccc1=O (stereo not given in full) | -16%
CCCc1nc2ccc(Br)cc2c(=O)n1-c1ccc([N+](=O)[O-])c(C(F)(F)F)c1 | -16%
O=[N+]([O-])c1cccc(C2N3CCCN23)c1 (stereo not given) | 1%
COC(=O)C1=C(c2ccc(F)cc2OCc2ccccc2)C[C@@H]2CC[C@H]1N2C(=O)NCCNC(C)=O | -5%
COc1cc(C)c(CNCCc2c[nH]c3ccccc23)cc1C | -8%
O=C(CN1CCCC1)Nc1ccc(Cl)cc1C(=O)c1ccccc1 | -11%
COc1cc(Br)c(CNCCc2ccc3c(c2)OCO3)cc1OC | -2%
Cc1ccccc1-n1c(O)c(C(c2ccncc2)c2c(O)n(-c3ccccc3C)c(=O)[nH]c2=O)c(=O)[nH]c1=O | ?
CC(C)(C)N1C(=O)NC(=O)/C(=C\c2ccc3c(c2)CCN3CCCCl)C1=O | 4%
Cc1ccc(N2C(=O)NC(=O)/C(=C/c3cnn(-c4ccc(C)cc4)c3)C2=O)cc1 | ?
Cc1cc(C)c(Cn2c(C(=O)O)c(C=O)c3ccccc32)c(C)c1 | 8%
Cc1[nH]c2c(Cl)cccc2c1CCN | 10%
Nc1nc(O)c(-c2ccccc2)o1 | 4%
CCCCCCCSc1cc(OC)c(CCN(C)C)cc1OC | -4%
CN(C)/C=C/C(=O)C(Cl)(Cl)Cl | 11%
O=C(c1ccc(CNS(=O)(=O)c2ccccc2)cc1)N1CCC2(CC1)OCCO2 | -21%
CCc1ccc(NP(=O)(Oc2ccccc2F)Oc2ccccc2F)cc1 | -10%
CCN1C(=O)C(=C2C=C(C)OC(C)=C2)C(=O)N(CC)C1=S | 12%
COC(=O)C1=C(c2c(C)noc2C)C[C@@H]2CC[C@H]1N2C(=O)NC1CCCCC1 | -14%
COc1ccc2c3c1OC1C(=O)CC[C@@]4(O)[C@@H](C2)N(CC2CC2)CC[C@]314 (stereo not given in full) | -18%
CCOc1cc2c(cc1OCC)-n1cccc1C(c1cccc(F)c1)NC2 (stereo not given) | -10%
COC(=O)[C@@]1(Cc2ccc(F)cc2)[C@H]2c3cc(C(=O)N(C)C)[nH]c3C[C@H]2CN1C(=O)c1ccccc1 | -25%
O=c1[nH]c(=S)n(C2CC2)c(O)c1/C=N/N1CCOCC1 | -14%
COC(=O)Cn1cc(/C=C2\C(=O)NC(=O)N(c3ccc(OC)cc3)C2=O)c2ccccc21 | -9%
COc1ccc(N2C(=O)CC(N3CCC(n4c(=O)[nH]c5ccccc54)CC3)C2=O)cc1 (stereo not given) | 0%
CC[C@]12CC[C@H](O)CC1=CCC1C2CC[C@]2(C)C(=O)CCC12 (stereo not given in full) | -7%
CC(=O)c1c(C)n(C2CCCCC2)c2ccc(O)cc12 | 24%
C#CC(CC)(CC)NC(=O)Nc1ccc(OCC)cc1 | 2%
O=C1CN=C(c2ccccc2)c2cc([N+](=O)[O-])ccc2N1 | -14%&3%
O=C(c1cccc(N2CCCC2=O)c1)N1CCC2(CC1)OCCO2 | -6%
COC(=O)[C@@]1(OC)C[C@@H]2O[C@@]1(C)n1c3ccccc3c3c4c(c5c6ccccc6n2c5c31)C(=O)N(C)C4 | -24%
CCC1(NS(=O)(=O)c2ccc(N)cc2)C(=O)N(C)C(=O)N(C)C1=O | -18%
O=Cc1c(C(=O)O)n(Cc2ccc(Cl)cc2)c2ccccc12 | -15%
C[C@]12CC[C@H](O)CC1=CCC1C2CC[C@@]2(C)C1C[C@@H]1CC(=O)O[C@@H]12 (stereo not given in full) | -17%
CC1=CC(=O)C2=C(C)C[C@H](O)[C@@H]3[C@H](OC(=O)[C@H]3C)[C@@H]12 | -7%
Cc1cccc(CN2CCCC(C(=O)c3ccc(C(F)(F)F)cc3)C2)n1 (stereo not given) | -13%
CC1=CC(=Cc2sc3ccccc3[n+]2C)C=C(C)O1 | 14%
C=CCOC(=O)COc1cc(C)cc2oc(=O)c3c(c12)CCC3 | -3%
Cc1ccc(-n2c(O)c(/C=C/C=Nc3ccccc3)c(=O)[nH]c2=O)cc1 | 4%
COc1cccc(N2CCN(Cc3cccc(Cl)c3)CC2)c1 | 17%
Cn1cnc([N+](=O)[O-])c1Sc1ccc([N+](=O)[O-])cc1 | -28%
O=C(c1ccccc1)C1CCCN(Cc2nc(-c3cnccn3)no2)C1 (stereo not given) | -8%
O=C(Oc1ccccc1)N1CCC2(CCCN(Cc3nccs3)C2)CC1 | ?
ClC1=C(Cl)C2(Cl)C(CBr)CC1(Cl)C2(Cl)Cl (stereo not given) | 11%
c1ccc(C2(N3CCCCC3)CCCCC2)cc1 | -8%
CCOC(=O)C(O)(c1ccc(N(CC)C(=O)OC)cc1)C(F)(F)F (stereo not given) | 10%
CC(=O)OCC1=C(C(=O)O)N2C(=O)[C@@H](NC(=O)CCC[C@@H](N)C(=O)O)[C@H]2SC1 | 2%
C[C@H]1OC[C@@H](C[N+](C)(C)C)O1 | -20%

In another format: 4 of the compounds above
> CC(=O)OCC1=C(C(=O)O)N2C(=O)[C@@H](NC(=O)CCC[C@@H](N)C(=O)O)[C@H]2SC1
  VDR inhibitor: 2%

> Cc1[nH]c2c(Cl)cccc2c1CCN
  VDR inhibitor: 10%

> CC(C)OCC(O)CN1CC2C[C@@H](C1)Cn1c2cccc1=O (stereo not given in full)
  VDR inhibitor: -16%

> CCC1(NS(=O)(=O)c2ccc(N)cc2)C(=O)N(C)C(=O)N(C)C1=O
  VDR inhibitor: -18%

Remaining list, next part.
SMILES | VDR inhibitor
Fc1ccccc1CNC1CN2CCC1CC2 (stereo not given) | ?
CN1CCN(c2ccc(/C=C3\C(=O)NC(=S)N(c4cccc(Br)c4)C3=O)o2)CC1 | ?
O=[N+]([O-])c1ccc(C2C3C(c4ccccc4)=NC4(CCCCC4)N32)cc1 (stereo not given) | 4%
CCOc1cc(/C=C2\C(=O)NC(=O)N(CCc3ccc(F)cc3)C2=O)ccc1O | ?
COc1cc(/C=C2\C(=O)NC(=O)N(CCc3ccc(F)cc3)C2=O)ccc1O | ?
COC(=O)C1=C(c2ccc(OC(F)(F)F)cc2)C[C@@H]2CC[C@H]1N2C(=O)N1CCOCC1 | 15%
O=S1(=O)CC2(N3CCOCC3)CCCCCCC21 (stereo not given) | 0%
NC1CCCC[C@@H]1N (stereo not given in full) | 0%
O=C(Nc1nccs1)c1c(O)c2c(n(Cc3ccco3)c1=O)CCCC2 | -19%
COc1ccc(/C=C/C(=O)c2c(O)n(CCC3=CCCCC3)c(=O)[nH]c2=O)cc1 | ?
O=C1CC(=O)N(c2cccc(C(F)(F)F)c2)C(=O)N1 | ?
Fc1ccc(Cn2nnnc2C(c2ccc(F)cc2)N2CC=C(c3ccc(F)cc3)CC2)cc1 (stereo not given) | 2%
CCC(=O)OC1CCC2C3CCC4=CC(=O)CC[C@@]4(C)C3CC[C@]12C (stereo not given in full) | ?
Cc1cccc(NC(=O)N2C[C@H]3C[C@@H](C2)c2cccc(=O)n2C3)c1 | 3%
Nc1c2c(nc3ccccc13)CCN(Cc1ccccc1)C2 | -3%
CCOC(=O)c1ccccc1NC(=O)c1c(O)[nH]c(=O)[nH]c1=O | -9%
Nc1ccc2ccccc2c1 | 12%
CN(C/N=C(\N)N[N+](=O)[O-])S(=O)(=O)c1ccccc1 | 7%
CCNc1ccc(P(=S)(N(C)C)N(C)C)cc1 | 10%
CNC(=O)O/N=C/c1nn(C(=O)C(C)(C)C)cc1Br | -3%
COc1ccc(OC)c(NC(=O)N2C[C@H]3C[C@@H](C2)c2cccc(=O)n2C3)c1 | 11%
CN(C)CCN=Cc1c(O)n(Cc2ccco2)c(=O)[nH]c1=O | 0%
O=C1NC(c2cc3ccccc3nc2Cl)Nc2ccccc21 (stereo not given) | -1%
COc1ccc2c(c1O)[C@]13CCN(C)[C@H](C2)[C@@H]1CCC(=O)C3 | -15%
C[C@H]1CCC/C=C/[C@@H]2C[C@H](O)C[C@H]2[C@@H](O)/C=C/C(=O)O1 | 3%
CN1CCCC2(CCN(C(=O)c3ccncc3)CC2)C1 | 6%
CCOC(=O)c1cc(C)n(CCc2cnc[nH]2)c1C | -11%
COc1ccc(-c2nn(CCC#N)cc2C(=O)Nc2ccc(C(C)=O)cc2)cc1 | 5%
Oc1ccc2c3c1O[C@H]1c4[nH]c5c(c4C[C@@]4(O)[C@@H](C2)N(CC2CC2)CC[C@]314)C[C@]1(O)[C@H]2Cc3ccc(O)c4c3[C@@]1(CCN2CC1CC1)[C@@H]5O4 | 7%
C=CC[N+]1(C)CCC23c4c5ccc(O)c4O[C@H]2C(=O)CC[C@@]3(O)C1C5 (stereo not given in full) | 4%
CCN1CCC(NCC2CCCCC2)CC1 | 4%
FC(F)(F)c1ccc2c(c1)NP(=S)(N1CCOCC1)c1nccn1-2 (stereo not given) | -15%
Cc1c(-c2cccc(Cl)c2)nc2ccccc2c1C(=O)N1CCC2(CC1)OCCO2 | -3%
CN1CCCC2(CCN(C(=O)Oc3ccccc3)CC2)C1 | -1%
O=CC(Cl)P(=O)(N1CCOCC1)N1CCOCC1 (stereo not given) | -1%
N#C/C(=C/c1ccc(O)c(O)c1)C(N)=S | 40µM*
COC(=O)C1=C(c2ccc(-c3ccccc3)c(F)c2)C[C@@H]2CC[C@H]1N2C(=O)N1CCCCC1 | -3%
C=C[C@@H]1CN2CC[C@H]1C[C@H]2[C@H](O)c1ccnc2ccccc12 | 1%
CCCCCCCCCCCC[N+](C)(C)CCOc1ccccc1 | 32%
CN1C(=O)N(C)C(=O)C(CCc2ccccn2)(CCc2ccccn2)C1=O | 8%

The last 2 entries of the part before open the next one.
SMILES | VDR inhibitor
CCCCCCCCCCCC[N+](C)(C)CCOc1ccccc1 | 32%
CN1C(=O)N(C)C(=O)C(CCc2ccccn2)(CCc2ccccn2)C1=O | 8%
O=C(NCc1ccccc1)c1cccn(Cc2cccc(Cl)c2)c1=O | -24%
CC1(C)CC(=O)C(C=NCCN2CCN(C(=O)Cc3ccccc3)CC2)=C(O)C1 | -3%
O=C1C(I)=CC(=C(c2cc(I)c(O)c(I)c2)c2ccccc2C(=O)O)C=C1I | 35µM*
CCCCCn1c(N)c(C(=O)NCCN2CCOCC2)c2nc3ccccc3nc21 | -9%
C[C@](O)(CS(=O)(=O)c1ccc(F)cc1)C(=O)Nc1ccc(C#N)c(C(F)(F)F)c1 | -11%
C=C1CC2C(CC[C@]3(C)C(=O)CCC23)[C@]2(C)C=CC(=O)C=C12 (stereo not given in full) | -11%
Cc1ccc(S(=O)(=O)N2CCC(C(=O)N3CCC4(CC3)OCCO4)CC2)cc1 | 1%
Cc1[nH]c2c(C(F)(F)F)cccc2c1CCN | 4%
CCC(=NCc1ccco1)c1c(O)[nH]c(=O)[nH]c1=O | 9%
Fc1cccc(CNCCc2c[nH]c3ccccc23)c1 | -15%
CC(C(=O)c1c[nH]c2ccccc12)N1CCc2ccccc2C1 (stereo not given) | 4%
ClCCN1CCN(c2ccnc3cc(Cl)ccc23)CC1 | 6%
Cn1c(O)c(C=NC2CCN(Cc3ccccc3)CC2)c(=O)n(C)c1=O | 8%
O=C(Nc1cccc(F)c1)N1CCCC2(CCN(C(=O)Oc3ccccc3)CC2)C1 | 11%
Cc1cc(OC(C)C(=O)NCc2ccncc2)c2c3c(c(=O)oc2c1)CCCC3 (stereo not given) | -5%
Cc1ccc(N)c(C(=O)c2ccc(Br)cc2)c1 | -5%
CCC1Nc2ncnc(N3CCN(c4ccccn4)CC3)c2N(Cc2ccc(Br)cc2)C1=O (stereo not given) | ?
COC(=O)C1=C(C)NC(=S)NC1c1ccc(N(CCCl)CCCl)cc1Cl (stereo not given) | ?
CCC1C2Cn3c(nc4ccccc43)C1N(C)O2 (stereo not given) | 3%
COC(=O)C1=C(c2cccc(OCc3ccccc3)c2)C[C@@H]2CC[C@H]1N2C(=O)NCCN1CCOCC1 | -2%
CC(=NCCC1=CCCCC1)c1c(O)n(C)c(=O)n(C)c1=O | 0%
CNC(=O)Oc1ccccc1C(=O)Nc1ccccc1 | 8%
Cc1ccc(OCCn2cccc2/C=C2/C(=O)NC(=O)N(Cc3ccco3)C2=O)cc1 | -12%
O=C1CC=C2C3CC4N(CCC45c4ccccc4N1C25)CC3=CCO (stereo not given) | 3%

Shown as a markdown table: part of the list above
| Structure | VDR inhibitor |
| --- | --- |
| O=C1CC=C2C3CC4N(CCC45c4ccccc4N1C25)CC3=CCO (stereo not given) | 3% |
| CC(=NCCC1=CCCCC1)c1c(O)n(C)c(=O)n(C)c1=O | 0% |
| Cc1ccc(OCCn2cccc2/C=C2/C(=O)NC(=O)N(Cc3ccco3)C2=O)cc1 | -12% |
| CNC(=O)Oc1ccccc1C(=O)Nc1ccccc1 | 8% |

Screens deposited in PubChem BioAssay by National Center for Advancing Translational Sciences (NCATS).

Not all compounds are listed. The share of hits here may be higher or lower than overall.
